Screening data as filed in PubChem BioAssay.
VACV mCherry inh: vaccinia inhibition (mCherry reporter). Vaccinia virus mCherry reporter infection, fluorescence; about a quarter of the inactives have no number. Potency, µM (highest dose often 36.5 µM), inactives show at the top dose activity change, negative = inhibition, actives largely listed as inhibitors. hit rate 0.63% among 310,000. AID 720579; active = well fitted inhibition curve with a large enough effect; inconclusive = small, poorly fitted or top-dose-only effect; inactive = no such curve, though single readings can be large or run the other way; tested in A549 cells; note: nearly all actives have a fitted effect of over 35% in size; inactives centre near -10
Vaccinia Venus: vaccinia inhibition (Venus reporter); Vaccinia virus Venus reporter expression, fluorescence; Potency, µM (series often up to 36.5 µM), inactives show at the top dose activity change, negative = inhibition, hits mostly inhibitors; hit rate 0.46% among 330,000; AID 720580; active means well fitted inhibition curve with a large enough effect; inconclusive means small, poorly fitted or top-dose-only effect; inactive means no such curve, though single readings can be large or run the other way; tested in A549 cells; note: nearly all actives have a fitted effect of over 30% in size; inactives centre near -10
An asterisk follows results filed as active; i = inactive; ? = inconclusive; . = no result given; & = joins results of further samples. % is set by controls: 0 for no effect and ±100 for the full control effect; potency is the fitted concentration of half-maximal effect.

Fields – VACV mCherry inh, Vaccinia Venus
1	O=C(OCc1ccccc1)N1CCC2CC1c1c2cccc1N1CCOCC1 (configuration not stated)
 : -4%, -15%
2	O=c1cc(-c2ccsc2)oc2ccccc12
 : -2%, -2%
3	COc1cccc2cc(C(C)OC(=O)Nc3ccc(C)cc3)oc12 (configuration not stated)
 : -30%, -19%
4	COC(=O)c1ccccc1NC(=O)c1nc(-c2ccc(C)cc2)n2c1CCCCC2
 : -18%, -5%
5	CCOC(=O)c1c(-c2ccccc2)oc2ccc(NS(=O)(=O)c3ccc(OC)cc3)cc12
 : ?, -24%
6	O=C(O)c1ccccc1C(=O)Nc1ccc(Oc2cccc3ccccc23)cc1
 : ?, -7%
7	CC(Oc1ccccc1)C(=O)N1CCN(c2ccc(N3CCCCC3)nn2)CC1 (configuration not stated)
 : -21%, -14%
8	CC(=NCc1ccco1)c1c(O)n(Cc2ccccc2)c(=O)[nH]c1=O
 : -24%, -10%
9	CC(C)C[C@H]1CN(CCCC[C@H]2CNC(=O)C(=O)N2CCc2ccc(O)cc2)C(=O)C(=O)N1Cc1ccccc1
 : -3%, -11%
10	CCc1nc2ccc(C(=O)N3CCN(C(=O)c4ccco4)CC3)cn2c1N(CCC(C)C)CCN(C)C
 : i, -6%

New compounds follow
Fields – VACV mCherry inh, Vaccinia Venus
11	COc1cc(NC(=O)CN2C(=O)NC(C)(CCC(C)C)C2=O)cc(OC)c1 (configuration not stated)
 : i, -12%
12	CCCCc1ccc(NC(=S)N2CCCC(CO)C2)cc1 (configuration not stated)
 : -21%, -17%
13	CC(C)C[C@@H]1NC(=O)[C@H](C(C)C)NC(=O)c2cc([N+](=O)[O-])cc(I)c2OCC[C@@H](C(N)=O)NC1=O
 : i, -15%
14	Cn1c(-c2ccccc2)cc2onc(-c3ccccc3)c2c1=O
 : i, ?
15	COc1cc(C2/C(=C(\O)c3ccc4c(c3)OCCO4)C(=O)C(=O)N2CCN2CCOCC2)cc(OC)c1OC (configuration not stated)
 : -14%, -10%
16	COc1cc(/C=N/NC(=O)c2cccc(C)c2)ccc1OCC(=O)Nc1ccccc1
 : -5%, -18%
17	O=c1c2ccccc2[nH]c(=S)n1CCC1=CCCCC1
 : -6%, -18%
18	CNC(=O)Nc1ccccc1C(=O)Nc1ccccc1
 : 16%, 19%
19	O=C(COc1ccccc1)NCC(c1ccc(Cl)cc1)N1CCOCC1 (configuration not stated)
 : -8%, -6%
20	O=C1C[C@H]2C=CCc3cccc(c32)CN1Cc1ccc(F)cc1
 : i, -15%

Next section.
Fields – VACV mCherry inh, Vaccinia Venus
21	COc1cccc(-c2nnc(SCC(=O)N(C)c3ccccc3)o2)c1
 : 3%, 8%
22	O=c1[nH]c(C(F)(F)F)nc2c1nc1n2CCC1
 : i, -9%
23	CCOC(=O)[C@H]1[C@H]2COc3ccc(C)cc3[C@@H]2N2C(=O)CN(Cc3ccc(OC)cc3)C(=O)[C@@]12C
 : -17%, -10%
24	O=C(O)CCSc1nnc(COc2cccc3ccccc23)n1-c1cccc(Cl)c1
 : i, -1%
25	CC1CCCC(NC(=O)C2CC(=O)N(Cc3ccccc3)C2)C1C (configuration not stated)
 : -8%, -10%
26	COc1ccc(CCN(C)C2CC(=O)N(c3ccccc3)C2=O)cc1OC (configuration not stated)
 : i, -3%
27	CC12CC3(C)CC(C)(C1)CC(C(=O)NCc1cccnc1)(C2)C3
 : -16%, -2%
28	CCN(CC)c1ccc2cc(-c3nc4ccccc4[nH]3)c(=O)oc2c1
 : 2%, 2%
29	COc1ccc(NC(=O)C2(C)CCN2Cc2ccc(OC)c3ccccc23)cc1OC (configuration not stated)
 : i, ?
30	CSc1nc2ccc(NS(=O)(=O)c3c(Cl)cccc3Cl)cc2s1
 : -9%, -18%

(listing goes on)
Fields – VACV mCherry inh, Vaccinia Venus
31	CCOc1ccc(NC(=O)CN2C(=O)CSC2=O)cc1
 : -14%, 26%
32	Oc1ccc(N2CCN(c3ncnc4sc(-c5ccccc5)cc34)CC2)cc1
 : -10%, -1%
33	CCN(CC)S(=O)(=O)c1ccc(/C=C/C(=O)O)cc1
 : i, -19%
34	Cc1ccc(C2(C)NC(=O)N(CC(=O)NCc3cccs3)C2=O)cc1 (configuration not stated)
 : i, -18%
35	Cc1ccc(N2C(=O)CSC23C(=O)N(Cc2ccccc2F)c2ccccc23)cc1F (configuration not stated)
 : -23%, -8%
36	CC1CCc2c(sc3nc(CN4CCOCC4)nc(N4CCc5ccccc5C4)c23)C1 (configuration not stated)
 : -29%, -13%
37	COC(=O)c1c(NC(=O)CN2C(=O)C(=O)N(CC(C)C)C2=O)sc(C)c1C
 : i, -18%
38	COc1cc(OC)c2c(-c3cccc(-c4ccc(OC)c(F)c4)c3)cc(=O)oc2c1
 : ?, ?
39	O=C(CCCOc1ccccc1)Nc1ccc(S(=O)(=O)N2CCOCC2)cc1
 : ., -27%
40	COC(=O)CSc1nc(N)c2c3c(sc2n1)C(c1ccccc1)SC(c1ccccc1)C3 (configuration not stated)
 : -7%, -4%

Additional structures follow.
Fields – VACV mCherry inh, Vaccinia Venus
41	CSc1nnc(C)c(=O)n1COC(=O)/C=C/c1ccccc1
 : -7%, 10%
42	Cc1ccc(/C=C(\C#N)C(=O)NCCN2CCOCC2)cc1
 : -11%, -10%
43	Nc1nc(-n2cnnc2)nn1-c1ccccc1
 : -13%, -3%
44	Cc1ccc(OCC(=O)N2N=C(c3ccc(Cl)cc3)CC2c2ccco2)c([N+](=O)[O-])n1 (configuration not stated)
 : ?, -20%
45	O=C(Nc1ccc(-c2nc3ccccc3o2)cc1)c1cccnc1
 : ?, ?
46	O=C(COc1ccccc1)Nc1cc(S(=O)(=O)N2CCOCC2)ccc1N1CCCC1
 : i, -6%
47	O=C(COc1cc(O)c2c(=O)c3ccccc3oc2c1)OCc1ccccc1
 : 18%, 6%
48	CC(=O)N1c2ccccc2C(=O)C1N1CCN(c2cccc(C(F)(F)F)c2)CC1 (configuration not stated)
 : -13%, -13%
49	COC(=O)Cn1c2ccccc2c2nc3ccccc3nc21
 : -6%, -6%
50	CCOC(=O)C1=C(C)N=C2SC(C)C(=O)N2C1c1cccc(F)c1 (configuration not stated)
 : -15%, -9%

The listing continues.
Fields – VACV mCherry inh, Vaccinia Venus
51	COc1cc(OC)cc(C(=O)NC(C(=O)O)C23CC4CC(CC(C4)C2)C3)c1 (configuration not stated)
 : -15%, -15%
52	C[C@H](c1ccccc1)N1C[C@@H](COCc2ccccc2)Oc2cc(N3CC[C@@H](O)C3)ccc2S1(=O)=O
 : -13%, -22%
53	COc1ccc(C2=NOC(Cn3nc(-c4ccccc4)cc3C(=O)O)C2)cc1 (configuration not stated)
 : -13%, -10%
54	COc1cccc(NC(=O)CN(C)C(=O)CCNC(=O)c2ccccc2OC)c1
 : i, -9%
55	COc1ccc(OCc2cc(C(=O)N3CCCCCC3)no2)c(Cl)c1
 : -22%, -14%
56	O=C(c1nn(Cc2ccccc2)c(=O)c2ccccc12)N1CCN(C/C=C/c2ccccc2)CC1
 : ., -18%
57	O=C(CN1C(=O)NC(Cc2c[nH]c3ccccc23)C1=O)Nc1cccc(S(=O)(=O)N2CCCC2)c1 (configuration not stated)
 : -29%, 3%
58	COc1ccc(-c2nn(-c3ccccc3)cc2C(=O)O)cc1OC
 : -3%, -1%
59	CCCOc1ccc(C2C(C(=O)c3ccco3)=C(O)C(=O)N2CCCn2ccnc2)cc1 (configuration not stated)
 : -6%, -2%
60	O=C(Nc1cccc(Cl)c1)c1nc[nH]c1C(=O)NCc1ccccc1
 : i, -29%

Later entries.
Fields – VACV mCherry inh, Vaccinia Venus
61	Oc1ccc(N2CCN(C(c3ccc(Cl)cc3)c3nnnn3Cc3ccc(F)cc3)CC2)cc1 (configuration not stated)
 : -10%, -14%
62	COc1cc(C(=O)Nc2ccc(F)cc2Cl)ccc1OCC(=O)N1CCOCC1
 : -12%, -10%
63	CCOC(=O)COc1ccc(S(=O)(=O)N2CCN(c3ccc(OC)cc3)CC2)cc1
 : -1%, 4%
64	Cc1ccc(Oc2ccc(S(=O)(=O)N3CCOCC3)cc2C(N)=O)c(-n2nc3ccccc3n2)c1
 : ., ?
65	COc1ccc(C2C(C(=O)c3ccco3)=C(O)C(=O)N2CC2CCCO2)c(OC)c1 (configuration not stated)
 : 0%, -3%
66	O=C(CSc1nnc(-c2ccc3c(c2)OCO3)o1)Nc1ncc(C(F)(F)F)cc1Cl
 : i, 3%
67	NC(c1csc(Nc2cnccn2)n1)c1ccccc1Cl (configuration not stated)
 : i, -12%
68	CCOc1ccc(NC(=O)CN(C)C(=O)C2CC(=O)N(CCc3ccccc3)C2)cc1OCC (configuration not stated)
 : -19%, -10%
69	O=C(NCCNC(=O)c1ccco1)c1ccc(Cl)c(Cl)c1
 : -8%, -3%
70	CCCCCC(=O)Nc1cc(S(=O)(=O)N2CCCCC2)ccc1N1CCOCC1
 : -17%, -11%

Further records
Fields – VACV mCherry inh, Vaccinia Venus
71	O=S(=O)(CCNCc1ccco1)NCc1ccccc1
 : -9%, -19%
72	COc1ccc(Cl)cc1NC(=O)CC(C)=O
 : ., -13%
73	COCCN(C(=O)c1cc(S(=O)(=O)N2CCCCC2)ccc1Cl)c1c(N)n(CC(C)C)c(=O)[nH]c1=O
 : i, -2%
74	Cc1nn(CC(=O)c2ccc(Cl)s2)c(C)c1[N+](=O)[O-]
 : -1%, 12%
75	COc1ccc(NC(=O)CSc2nc(=O)n(CCN3CCOCC3)c3c2CCCC3)c(OC)c1
 : -20%, -14%
76	COc1ccc(C(=O)N/N=C/c2c(C)[nH]c(=O)[nH]c2=O)cc1
 : i, 10%
77	CCCc1ccc(C(=O)[C@@H]2[C@@H](C(C)=O)N3c4ccc(F)cc4C=C[C@@H]3[C@@]23C(=O)Nc2ccccc23)cc1
 : ?, -11%
78	CC(C)CC(=O)Nc1nnc(S(=O)(=O)N2c3ccccc3CC2C)s1 (configuration not stated)
 : -3%, -8%&-4%
79	CC1(C(=O)Nc2ccc3c(c2)OCCO3)CSCC(=O)N1C1CCN(Cc2ccccc2)CC1 (configuration not stated)
 : ?, -11%
80	Cc1ccccc1NS(=O)(=O)c1ccc(NC(=O)c2ccco2)cc1
 : ?, ?

Following part
Fields – VACV mCherry inh, Vaccinia Venus
81	COc1cc2[nH]c(=O)n(Cc3ccc(C(=O)N4CCC(N5CCCCC5)CC4)cc3)c(=O)c2cc1OC
 : -9%, -4%
82	CC(=O)Nc1ccc(S(=O)(=O)NC2=NCN(CCO)CN2)cc1
 : -2%, -4%
83	CC(C)CNc1ncnc2c1ncn2[C@H]1CN(Cc2cccc3ccccc23)C[C@@H](CO)O1
 : -25%, -18%
84	C/C(=N/NC(=O)c1ccoc1C)c1cccc(NC(=O)C(F)(F)F)c1
 : i, -11%
85	O=S(=O)(c1ccccc1)N1N=C(c2cccs2)CC1c1ccc(F)cc1 (configuration not stated)
 : -11%, -28%
86	COc1ccc(OC)c(Nc2ccc(C(=O)O)cc2[N+](=O)[O-])c1
 : ?, 10%
87	COc1ccc2c(CC(=O)NNC(=O)c3ccccc3F)coc2c1
 : i, -14%
88	Cc1ccc(CN2CC(C(=O)Nc3cc(C)ccn3)CC2=O)cc1 (configuration not stated)
 : -27%, 13%
89	COc1cc(/C=C(/C#N)C(=O)Nc2ccc(Cl)cc2)ccc1Oc1nc(Cl)ncc1F
 : -19%, -19%
90	COC(=O)C(CCSC)NC(=O)Cn1ncc2c(=O)oc3ccc(C)cc3c21 (configuration not stated)
 : -14%, 3%

Next section
Fields – VACV mCherry inh, Vaccinia Venus
91	COC(=O)N1[C@H](Cc2ccccc2)C=C[C@]1(C)C(=O)NCc1ccccn1
 : i, -12%
92	O=C(O)CN1C(=O)CN=C(c2ccccn2)c2cc(Cl)ccc21
 : i, -13%
93	CCN(CC)c1ccc(N=Cc2c(O)n(Cc3ccco3)c(=O)[nH]c2=O)cc1
 : -14%, 3%
94	O=C(CCN1C(=O)c2cccc([N+](=O)[O-])c2C1=O)Nc1nccs1
 : 0%, 3%
95	CC(I)CCC(C)[n+]1cccc(I)c1 (configuration not stated)
 : -12%, 12%
96	Cc1cc(C(=O)NCc2ccco2)on1
 : -7%, 8%
97	COc1cc2c(cc1OC)-c1cc(Nc3ccc(F)cc3)nc(=O)n1CC2
 : i, -24%
98	COc1ccc(NC2(c3ccc(Cl)cc3)C(=O)c3ccccc3C2=O)cc1
 : ., -18%
99	Cc1ccc(SCC(=O)OCC(=O)N(C)CC(=O)Nc2ccccc2Cl)cc1
 : -16%, -5%
100	Cc1ccc(C)c(C(=O)CSc2nnc(C)s2)c1
 : -7%, -19%

New compounds follow.
Fields – VACV mCherry inh, Vaccinia Venus
101	CCOC(=O)c1cc(C#N)c(Oc2cccc(C(F)(F)F)c2)nc1-c1ccccc1
 : i, -17%
102	CCOC(=O)N1CCN(CCC(=O)Nc2ccc(Br)c(C)c2)CC1
 : -22%, -16%
103	Cc1ccc(CNC(=O)CN2C(=O)COc3ccc(S(=O)(=O)N4CCCCC4)cc32)o1
 : i, -30%
104	COc1ccc(C=C2C(=O)OC(C)(C)OC2=O)cc1OC
 : -6%, -12%
105	O=C(c1ccc(F)cc1)n1cc(C(=S)N2CCOCC2)c2ccccc21
 : -15%, -12%
106	CCN(C1CCS(=O)(=O)C1)S(=O)(=O)c1ccc(OC)c(OC)c1 (configuration not stated)
 : -12%, -6%
